CDC25B CDK2 inh: human CDC25B-CDK2/CyclinA binding inhibition; P30305+P24941; HTRF CDC25B-CDK2/CyclinA binding, anti-His/anti-Flag; stronger effect = higher value; actives 0.72% (n = 94,000); z-score (no concentration beside the values);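 further: score is relative to mean and SD of negative controls; strong numbers were not always called active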
HIV TAR-Tat: HIV-1 TAR-Tat binding disruption | HIV-1 TAR RNA, Tat peptide displacement FRET; stronger effect = higher value | z-score (concentration not given with the values) | actives 0.6% (n = 100,000) | AID 1259389;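 further: score is relative to mean and SD of negative controls; some compounds called inactive have numbers as strong as hits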
* marks the source's active call; other numbers are inactive results; / = not tested or not shown.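 How the source made its calls: active means z-score from 3 up in half or more of its runs; inactive means the rest.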

smiles	CDC25B CDK2 inh	HIV TAR-Tat
CCOC(=O)N1CCN(c2cc(NCC(C)C)c3c4c(onc24)-c2ccccc2C3=O)CC1	-1.8	0.35
Cc1cc(F)ccc1NS(=O)(=O)c1cn(C)cn1	/	2.1
CCOCCCNC(=O)C1=Cc2cc(Br)ccc2OC1	/	0.41
COc1ccc(-n2ccnc2SCC(=O)Nc2nccs2)c(OC)c1	/	0.91
O=C(Cn1ncc2ccccc21)Nc1cc(F)ccc1F	0.52	0.68
COc1cc(/C=C/C(=O)O)cc(OC)c1OC	/	0.15
CC(=O)Nc1c2n(c3ccccc13)CC(C)(C(=O)NC1CCCCC1)N(Cc1ccco1)C2=O (configuration not stated)	/	1.9
O=C(NCc1ccco1)C1CCN(S(=O)(=O)c2cccc3nonc23)CC1	0.13	0.57
COCc1cc(C)nc(SC)c1C#N	-0.13	2.1
CCOC(=O)N1CCN(c2ncnc3c2nnn3C)CC1	/	2.7
CC1=C(C(=O)Nc2ccccn2)C(c2ccc(Br)cc2)C2=C(CC(C)(C)CC2=O)N1 (configuration not stated)	-1.2	0.46
COc1cc2c(cc1OC)n(CC(=O)N1CCCC1)n1c(C)cc(=O)nc21	-1.5	1.8
Cc1c(C(=O)NNc2cc(C(F)(F)F)ccc2Cl)n(C)oc1=O	-1.5	/
Cn1c2c(c(=O)n(C)c1=O)CN(CCN1CCOCC1)CN2	-2.6	/
C=CCNc1oc(/C=C/c2cccc(OC)c2)nc1C#N	-0.17	-0.88
O=C(c1ccco1)N1CCN(CCc2ccccn2)CC1	-2.2	0.01
O=c1c2n[nH]c(=O)n2ccn1-c1ccccc1	-1.4	1.5
O=[N+]([O-])c1cccc(NC2O[C@H](CO)[C@@H](O)[C@H](O)[C@H]2O)c1 (some centres not stated)	-1.3	/
CCOC(=O)c1sc2nccc3c2c1N=CN3c1ccccc1	0.73	/
CCOC(=O)N1CCN(C(=O)CCc2c(C)nc3nc(C)nn3c2C)CC1	-1.3	-0.35
N#Cc1c(N)nc(SCC(=O)OCc2ccccc2)c(C#N)c1-c1ccc(O)cc1	0	/
O=C(O)C1CC(c2ccccc2O)=NO1 (configuration not stated)	-1.5	1.7
Cc1ccc(NC2=NC(c3ccccc3)n3c(nc(C)cc3=O)N2)c(C)c1 (configuration not stated)	0.85	3.4
CC(C)c1nn2c(=O)cc(CSc3n[nH]c(N)n3)nc2s1	/	0.72
CC1=C(c2ccc(C)cc2)S(=O)(=O)N(CC(=O)O)C1=O	-2.5	/
Cn1nnnc1SCC(=O)NC(C(=O)O)(c1ccccc1)c1ccccc1	1.5	0.71
O=C(Cn1c(=O)oc2cc(S(=O)(=O)N3CCCC3)ccc21)N1CCN(C2CCCCC2)CC1	-0.39	0.9
COc1ncccc1C(=O)Nc1ccccc1Cl	0.24	/
CCc1nnc(NC(=O)CSc2nc(C(F)(F)F)cc(C)c2C#N)s1	-0.69	/
CCc1nc(OCC(=O)OC)c2onc(-c3ccccc3)c2n1	-0.68	0.78
Cc1ccsc1CCNS(=O)(=O)c1cc(F)ccc1CN1C(=O)c2cccnc2C1=O	/	-0.45
CCCCc1nc(SCC(=O)N2CCN(c3ccccc3)CC2)c2c(=O)n(C)c(=O)n(C)c2n1	/	0.35
CC1CS(=O)(=O)N(c2ccc(C(=O)Nc3nccs3)c(Cl)c2)C1=O (configuration not stated)	-1.7	0.86
CCc1cc(Nc2ccc(F)c(Cl)c2)n2ncnc2n1	-1.1	1.7
CC1CCc2nn(CC(=O)NCCC3=CCCCC3)cc2C1 (configuration not stated)	0.24	0.8
COc1ccc(Cl)cc1NC(=O)CSCc1ccco1	-1.4	/
Cc1ccc2nc(N3CCN(c4cccc(Cl)c4)CC3)c3nncn3c2c1	-2.2	-0.86
FC(F)(F)c1ccc(SCc2ccccc2)nc1	-0.43	/
CCOC(=O)C1=C(CC)NC2=C(C(=O)CCC2)C1c1ccccc1 (configuration not stated)	-0.51	/
Cc1ccnc(NC(=O)C(CCS(C)(=O)=O)N2Cc3ccccc3C2=O)c1 (configuration not stated)	/	0.09
CCOC(=O)C(=O)N1N=C(c2ccc(Br)cc2)CC1(O)C(F)(F)F (configuration not stated)	-0.16	/
Cc1noc(/C=C/c2cn(Cc3ccccc3Cl)c3ccccc23)c1[N+](=O)[O-]	1.1	-7.6
O=C(O)c1cc(-c2ccco2)nc2ccccc12	/	24*
Cc1ccc(Nc2ncnc3c2cnn3-c2ccc(C)cc2)cc1	-4	/
O=C(Nc1cccc(Br)c1)c1csc2c1CCCC2	-0.37	-0.63
O=C(C1CCCN(S(=O)(=O)c2cccc3nsnc23)C1)N1CCN(c2ccc(F)cc2)CC1 (configuration not stated)	-1.2	1.8
COC(=O)COc1ccc2c(=O)c(Oc3ccc(C(C)(C)C)cc3)coc2c1	-0.39	-0.36
COc1cc(C2C3=C(CC(C)(C)CC3=O)OC3=C2C(=O)CC(C)(C)C3)ccc1OC(C)=O	0.63	/
CC(NCCC(c1ccccc1)c1ccccc1)c1ccccc1 (configuration not stated)	/	1.1
O=S1(=O)C=Cc2ccc(NC(=S)Nc3ccccc3C(F)(F)F)cc21	-2	/
CC(C)CC(NS(=O)(=O)c1ccc2[nH]c(=O)ccc2c1)C(=O)NC1CCCCC1 (configuration not stated)	/	2.6
C=CCOC(=O)c1sc(NC(=O)c2sc3ccccc3c2Cl)nc1C	-1.1	-0.01
C#CCOC(=O)c1sc2ccccc2c1Cl	1.1	/
Cc1cc(C)c(S(=O)(=O)Nc2ccc3c(c2)COC3=O)c(C)c1	0.88	0.86
Cc1oc2cc3c(C(=O)OCCN(C)C)c(C)oc3cc2c1C(=O)OCCN(C)C	1.3	-0.56
Cc1c(NC(=O)Nc2ccccc2F)c(=O)n(-c2ccccc2)n1C	-2	2
COc1ccc(-c2coc3cc(O)ccc3c2=O)cc1OC	-0.04	1.5
Nc1ccc(Cc2nc3ccc(C(=O)O)cc3[nH]2)cc1	-0.8	-0.58
Cc1[nH]c2ccccc2c1CN1CCc2ccccc2C1	0.73	/
CCN(CC)S(=O)(=O)c1ccc2c(c1)CC(C(=O)N1CCN(C)CC1)N2C(C)=O (configuration not stated)	/	0.26

Continued.
smiles	CDC25B CDK2 inh	HIV TAR-Tat
CCc1ccc(NC2=NS(=O)(=O)C(c3cccc(Br)c3)=C2C)cc1	-1.8	0.27
Cn1ncc2c(N3CCN(CCO)CC3)ncnc21	/	1.8
Cc1nnc(N2CCCC(C(=O)N3CCCC3)C2)c2nn(-c3ccc(Cl)cc3)c(C)c12 (configuration not stated)	/	-0.08
c1ccc2c(CN3CCN(Cc4ccc5c(c4)OCO5)CC3)c[nH]c2c1	-1.4	-0.5
Cc1ccc(C2=Nn3c(nnc3-c3ccc(Cl)cc3)SC2)cc1	/	0.61
COc1ccc(S(=O)(=O)[C@H]2CS(=O)(=O)C[C@@H]2NCC(C)C)cc1	-1.7	1.9
CCCCCS(=O)(=O)c1oc(-c2cccs2)nc1S(=O)(=O)c1ccc(C)cc1	-1.6	0.07
Cc1cccc(N2CCN(S(=O)(=O)c3ccc(-c4cnc(C5CC5)o4)cc3)CC2)c1C	/	2.4
COCCN=C1NS(=O)(=O)C(c2ccccc2)=C1C	-2.3	-2.3
Cc1nc2ncnn2c(Nc2ccc(Br)cc2)c1C	/	1.8
O=C(c1cccnc1)N1CCN(C(=O)c2cc(-c3cccs3)[nH]n2)CC1	/	-0.52
CCOc1ccc(CCNc2ccc3nncn3n2)cc1OCC	0.08	0.3
C=CCN1C(=O)/C(=C\c2ccc(OC(=O)c3ccc(F)cc3)c(OC)c2)SC1=S	-3	/
CC(C)(C)c1nnc2sc(-c3ccc4c(c3)OCO4)nn12	-0.64	0.65
CS(=O)(=O)NCC(c1ccco1)N1CCOCC1 (configuration not stated)	/	1.3

A second format for 2 compounds above.
Values run as follows: CDC25B CDK2 inh, HIV TAR-Tat
> Cc1cccc(N2CCN(S(=O)(=O)c3ccc(-c4cnc(C5CC5)o4)cc3)CC2)c1C
 : /, 2.4
> COCCN=C1NS(=O)(=O)C(c2ccccc2)=C1C
 : -2.3, -2.3

Next compounds:
smiles	CDC25B CDK2 inh	HIV TAR-Tat
CCn1cc(CCC(=O)NC2CCCc3ccccc32)c2ccccc21 (configuration not stated)	/	1.3
O=C(O)c1ccc2c(=O)n(-c3ccc(F)cc3)c(N3CCCC3)nc2c1	-2	2.3
CN(C)CCN1C(C(=O)c2ccccc2)=C(OC(=O)c2ccccc2)c2ccccc2S1(=O)=O	-0.74	1.8
O=C1C=CC(=O)N1Cc1cccs1	-1.6	/
CC(C(=O)Nc1nc(-c2ccccc2)cs1)N1C(=O)c2ccccc2C1=O (configuration not stated)	-1.1	/
O=c1c2ccccc2ncn1Cc1noc(-c2ccc(Cl)cc2)n1	/	0.97
O=C1CC(c2cccc3ccccc23)Sc2nc(-c3ccccc3)nn21 (configuration not stated)	-0.31	-1.3
O=C(Cc1cccc2ccccc12)NC1CCCCNC1=O (configuration not stated)	-0.93	/
O=c1cc(CO)oc(C(Nc2ccccn2)c2ccsc2)c1O (configuration not stated)	-0.48	/
CCCC(CCC(=O)Nc1nccs1)C(=O)O (configuration not stated)	-0.99	2
CC(=O)N1CCCC1C(=O)O (configuration not stated)	/	0.39
CCOc1ccccc1OCc1nn2c(-c3ccccc3OC)nnc2s1	-1.9	2.5
CCN(CC)c1ccc(-n2cc3c(=O)n(C)c(=O)n(C)c3c2)cc1	-3	0.75
Cc1ccccc1NC(=O)C1Cc2ccccc2C(=O)O1 (configuration not stated)	-0.41	/
Cn1nc(C(=O)N2CCCC2)c2c1CCN(S(=O)(=O)c1cccc3cccnc13)C2	/	0.91
O=C1CN(C(=O)C2CC2)C(c2ccc(F)cc2)c2cc(F)ccc2N1 (configuration not stated)	-1.1	/
CC(C)(C)C(N)=NC(=O)c1ccc([N+](=O)[O-])o1	1.9	/
O=C(CCc1nc2sc3c(c2c(=O)[nH]1)CCCCC3)NC1CC1	/	0.92
CCCn1nnc2sc3c(c2c1=O)CCCC3	0.84	2.5
N#CC1=C2SCN(c3ccc(Cl)cc3)CN2C(=O)CC1c1ccccc1 (configuration not stated)	7.3*	-1.7
CC1CN(S(=O)(=O)c2ccc(CN3C(=O)c4cccnc4C3=O)s2)c2ccccc2S1 (configuration not stated)	/	1.2
CCOC(=O)c1sc2sc(C(=O)c3ccc(Cl)cc3)c(C)c2c1C	-1.4	/
Nc1cccc(C(=O)CC2(O)C(=O)Nc3ccc(Cl)cc32)c1 (configuration not stated)	-0.08	0.39
O=C1CCc2cc(S(=O)(=O)NC(c3ccccc3)c3ccccc3)cc3c2N1CCC3	/	1.1
O=C1NCCCC2c3cc(O)c4ccccc4c3OC12N1CCCCC1 (configuration not stated)	0.95	/
COc1ccc(-c2nc3scc(CCNS(=O)(=O)c4ccc(Cl)cc4)n3n2)cc1OC	/	1.8
Cc1ccn2c(=O)cc(COc3ccc(NC(=O)C(C)C)cc3)nc2c1	/	1.1
COc1ccc(-c2nc(N)n(S(C)(=O)=O)n2)cc1	-1.6	/
C#CCSc1nc2c(c(=O)[nH]1)C(c1ccc(OCC)c(OC)c1)CC(=O)N2 (configuration not stated)	-2.2	1.5
c1ccc(OCCSc2nnc(-c3ccccc3)o2)cc1	-0.85	2.7
CN1C(=O)C2(/C(=C(/O)c3ccc(Cl)cc3)C(=O)C(=O)N2CC2CCCO2)c2ccccc21 (configuration not stated)	0.93	1.7
OC(CN1CCc2ccccc2C1)c1ccc2cc[nH]c2c1 (configuration not stated)	-1.8	0.44
O/N=C(\CN1CCCCC1)c1ccccc1	-1.7	/
CN(C)C1=C(C(=O)Nc2ccccc2)S(=O)(=O)c2ccccc21	/	1.3
O=C(CN1C(=O)CC(c2ccccc2)Sc2ccccc21)c1ccccc1 (configuration not stated)	-1.7	/
COCCNS(=O)(=O)c1ccc2[nH]c(=O)[nH]c2c1	-0.31	-0.58
O=C(Nc1ccc(F)cc1)N1CCN(c2cnccn2)CC1	-1.4	1.8
CCSc1nnc(NC(=O)C(=O)c2c[nH]c3ccccc23)s1	-1.1	3.2
COc1ccc(NS(=O)(=O)c2ccc3c(c2)NC(=O)CC(C)S3)cc1OC (configuration not stated)	/	1.8
C=CCN1C(=O)/C(=C\c2ccc(OCc3ccc(Cl)cc3)c(OC)c2)SC1=S	-4.5	/
Cn1c(C(=O)N2CCC(C(=O)N3CCC(Cc4ccccc4)CC3)CC2)cc2sccc21	-1.5	/
O=C1OCCC1N1C(=O)c2ccccc2C1=O (configuration not stated)	0.22	/

Single entries from the list.
CDC25B CDK2 inh, `Cn1c(C(=O)N2CCC(C(=O)N3CCC(Cc4ccccc4)CC3)CC2)cc2sccc21` is entered as -1.5
CDC25B CDK2 inh, `O=C1OCCC1N1C(=O)c2ccccc2C1=O` (configuration not stated) is entered as 0.22
HIV TAR-Tat, `CN1C(=O)C2(/C(=C(/O)c3ccc(Cl)cc3)C(=O)C(=O)N2CC2CCCO2)c2ccccc21` (configuration not stated) is entered as 1.7

Six structures already listed, sorted by number of heavy atoms, falling:
smiles	CDC25B CDK2 inh	HIV TAR-Tat
Cn1c(C(=O)N2CCC(C(=O)N3CCC(Cc4ccccc4)CC3)CC2)cc2sccc21	-1.5	/
C=CCN1C(=O)/C(=C\c2ccc(OCc3ccc(Cl)cc3)c(OC)c2)SC1=S	-4.5	/
COc1ccc(NS(=O)(=O)c2ccc3c(c2)NC(=O)CC(C)S3)cc1OC (configuration not stated)	/	1.8
CN(C)C1=C(C(=O)Nc2ccccc2)S(=O)(=O)c2ccccc21	/	1.3
CCSc1nnc(NC(=O)C(=O)c2c[nH]c3ccccc23)s1	-1.1	3.2
O/N=C(\CN1CCCCC1)c1ccccc1	-1.7	/
